SmPrx2 inh: Schistosoma Mansoni Peroxiredoxins (Prx2); Schistosoma mansoni peroxiredoxin 2 (Prx2); S. mansoni Prx2 activity coupled to TGR/GSH (TGR is thioredoxin glutathione reductase), NADPH fluorescence loss, qHTS; some inactives read as strong as hits; Potency, µM; hit rate 0.07% among 65,000; active means full or partial inhibition curve with a strong effect at the top dose; inconclusive means weaker partial or single-point curve; inactive means no accepted curve; further: series up to 57 µM; many of its hits are not listed in these tables
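Prx2 activity was followed as the loss of NADPH fluorescence (ex 365/em 450 nm), read every 30 sec for 8 min after H2O2 start. The enzyme mix (50 nM Prx2, 25 nM TGR, GSH, NADPH; pH 7.4 phosphate buffer) was incubated with compound for 15 min at room temperature first.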
LT uptake inh: qHTS Assay for Anthrax Lethal Toxin Internalization; Cells, anthrax lethal toxin internalization, FRET ratio (460/530); Potency, µM (highest dose often 40 µM), inactives show at the top dose activity change, negative = inhibition, usual class: inhibitors; hit rate 0.67% among 70,000; AID 912, 2007; active = well fitted falling ratio curve with the 530 nm signal flat; inconclusive = other ratio curves, or a change in one channel alone; inactive = flat curves in the ratio and both channels; the % refers to the ratio; further: on the % scale 0 is the no-effect control and ±100 the full control effect; nearly all actives have a fitted effect of over 50% in size; tested in ME-180 cells; beta-lactamase reporter
* = called active by the depositor; [ ] = another dose, or the depositor's remark. Potency means the concentration at half of the fitted maximal effect. Only part of the results is shown (hit frequency here may not be typical).

For O=C(NCCN1CCOCC1)c1ccc(CS(=O)(=O)Cc2ccccc2F)o1 the results were SmPrx2 inh >57 and LT uptake inh 10.0%.
`O=C(OC1CCCCC1=O)c1cc(=O)c2ccccc2o1` (stereo not given) gave SmPrx2 inh >57 and LT uptake inh 8.1%.
For CN1CCN(c2ccccc2NC(=O)C(Cc2ccccc2)n2cccc2)CC1 (stereo not given) the results were SmPrx2 inh >57 and LT uptake inh -29.9%.
Screening CCOC(=O)CCn1c(CC(=O)OCC)nc2ccccc21 returned SmPrx2 inh >57.
Screening CC(C)(C)c1cc(CN2CCN(CCO)CC2)cc(C(C)(C)C)c1O returned SmPrx2 inh >57.
For C=CCNC(=O)CCNS(=O)(=O)c1ccc(Br)cc1 the results were SmPrx2 inh >57 and LT uptake inh inconclusive.
Screening Cc1cc2ncn(CC(O)COC3CCCCC3)c2cc1C (stereo not given) returned LT uptake inh -8.1%.
`COC(=O)c1ccc(C(NC(=O)OCc2ccccc2)/C(C)=C/[C@@H](C)C(=O)NCCc2c[nH]c3ccc(OC)cc23)cc1` (stereo not given in full) gave LT uptake inh -5.2%.
For Cn1nnnc1SCC(=O)N1CCN(Cc2ccccc2)CC1 the results were SmPrx2 inh >57 and LT uptake inh inconclusive.
For CCCCCCN(C(=O)CCCCCN1C(=O)NC(c2ccc(-c3ccccc3)cc2)C(C(=O)OCc2ccccc2)=C1C)C(C(=O)NCCCC)c1ccc(O)c(C(=O)OC)c1 (stereo not given) the results were LT uptake inh 5.9%.
For O=C(CNC(=O)C12CC3CC(CC(C3)C1)C2)NC1=NCCS1 the results were SmPrx2 inh >57 and LT uptake inh 8.0%.
`Cc1cc(C)c(C#N)c(SCCS(=O)(=O)Cc2ccccc2)n1` gave SmPrx2 inh >57 and LT uptake inh 1.9%.
Screening CCOC(=O)c1c(NC(=O)c2noc3c2CCCC3)sc(C)c1C returned SmPrx2 inh >57 and LT uptake inh 7.8%.
`CNC(=O)CN(c1cc(C)ccc1C)S(C)(=O)=O` gave SmPrx2 inh >57 and LT uptake inh -1.0%.
`CN1CCC2(CC1)CCN(C(=O)c1cccc(F)c1)CC2` gave SmPrx2 inh >57 and LT uptake inh inconclusive.
CC(=O)OC(C)(CCC(C)(OC(C)=O)C(C)=O)C(C)=O (stereo not given) was read as SmPrx2 inh >57 and LT uptake inh 12.4%.
Screening CC1=C(C(=O)Nc2ccccc2)C(c2ccco2)C(C#N)=C(SCC(=O)OC(C)C)N1 (stereo not given) returned LT uptake inh inconclusive.
For CC(C)(C)NC(=O)C1CCC(C)(C(=O)O)C1(C)C (stereo not given) the results were SmPrx2 inh >57 and LT uptake inh 4.4%.
Screening COc1ccccc1CN1C(=O)CN(C2CCCC2)C(=O)C1c1ccc(F)cc1 (stereo not given) returned SmPrx2 inh >57.
C[C@@H]1/C=C\CC(=O)OC[C@H](C)C(=O)N[C@@H](Cc2ccccc2)C(=O)OC1 was read as LT uptake inh -1.1%[8 µM].
For CN(C)C(=O)c1ccc(-c2ccc3ncnc(N4CCC(C(=O)O)CC4)c3c2)cc1 the results were SmPrx2 inh >57 and LT uptake inh -12.6%.
For CCCCC#Cc1ccccc1CC(=O)Nc1ccccc1 the results were SmPrx2 inh >57 and LT uptake inh -24.7%.
For Cn1c(SCC(=O)Nc2ccc(N3CCOCC3)c(Cl)c2)nnc1-c1ccccc1 the results were SmPrx2 inh >57 and LT uptake inh -25.6%.
`FC(F)(F)c1nnc2ccc(NCn3nnc4ccccc43)nn12` gave SmPrx2 inh >57 and LT uptake inh 12.3%.
For Cn1c(Cc2ccccc2)nnc1SCC(=O)Nc1ccc2c(c1)OCO2 the results were SmPrx2 inh >57 and LT uptake inh -3.1%.
For Cc1cnc(CNc2ccnc(-c3ccccc3CN(C)C)n2)cn1 the results were SmPrx2 inh inconclusive and LT uptake inh inconclusive.
`CN1CCN(C(=O)c2ccc(Cl)c(S(=O)(=O)N3CCCCC3)c2)CC1` gave LT uptake inh 4.9%.
For O=C(O)CC(C(=O)Nc1cccc(C(F)(F)F)c1)C1CCCO1 (stereo not given) the results were SmPrx2 inh >57 and LT uptake inh 0.6%.
Cn1c(C(=O)NC2CCCCC2)cc2c(=O)n(C)c3ccccc3c21 was read as SmPrx2 inh >57 and LT uptake inh 2.2%.
COC(=O)[C@H]1[C@H](c2ccccc2)C(=O)[C@@]2(O)c3ccccc3O[C@@]12c1ccccc1 was read as LT uptake inh -2.6%[8 µM].
For CC(=O)c1cccc(NC(=O)CN2C(=O)NC3(CCCCCCC3)C2=O)c1 the results were SmPrx2 inh >57 and LT uptake inh -3.1%.
Screening Cc1noc(C)c1C(=O)N1CCC[C@@]2(CCN(Cc3nccs3)C2)C1 returned SmPrx2 inh >57 and LT uptake inh inconclusive.
O=C(OCc1nc2ccccc2s1)C1CCN(S(=O)(=O)c2cccs2)CC1 was read as LT uptake inh 5.3%.
For CC1Oc2ccccc2N(CC(=O)NCC2CCCO2)C1=O (stereo not given) the results were SmPrx2 inh >57 and LT uptake inh -4.8%.
Screening O=C(CSCCO)Nc1ccc(C2CCCCC2)cc1 returned SmPrx2 inh >57 and LT uptake inh 12.0%.
COc1ccc(Oc2ncc3nc(CCc4ccccc4)c(=O)n(C)c3n2)cc1 was read as SmPrx2 inh >11.4 and LT uptake inh inconclusive.
CCc1ccc(C2CC(=O)N3CN(c4ccccc4)CSC3=C2C#N)cc1 (stereo not given) was read as SmPrx2 inh >57 and LT uptake inh -13.0%.
Cc1ccc2nc3c(c(N)c2c1)CCN3c1ccccc1 was read as SmPrx2 inh >57 and LT uptake inh -2.0%.
COc1ccc(-n2c(Cc3cccn3C)nnc2SCC(=O)NCc2ccc(F)cc2)cc1 was read as SmPrx2 inh >57 and LT uptake inh -3.5%.
Screening COc1ccc2c(c1)[C@]13CCCC[C@@H]1[C@H](C2)N(C)CC3 returned SmPrx2 inh >57 and LT uptake inh -9.6%.

Of the compounds above, two contain a furan ring, fused or not:
For O=C(NCCN1CCOCC1)c1ccc(CS(=O)(=O)Cc2ccccc2F)o1 the results were SmPrx2 inh >57 and LT uptake inh 10.0%.
Screening CC1=C(C(=O)Nc2ccccc2)C(c2ccco2)C(C#N)=C(SCC(=O)OC(C)C)N1 (stereo not given) returned LT uptake inh inconclusive.

Next part:
`O=C(O)Cn1c(SCCOc2ccccc2)nc2ccccc21` gave SmPrx2 inh >57 and LT uptake inh -0.4%.
CNC(=O)NC1CCCCc2sccc21 (stereo not given) was read as LT uptake inh -5.2%.
CCSc1nc2ccccc2n1S(=O)(=O)c1ccccc1 was read as SmPrx2 inh >57 and LT uptake inh 2.2%.
Cc1ccc(CN2C(=O)CCC2C(=O)NCc2ccc(F)cc2)cc1 (stereo not given) was read as SmPrx2 inh >57 and LT uptake inh 4.5%.
Cc1ccc(CNC(=O)[C@H]2C[C@@H]2[C@H](NP(=O)(c2ccccc2)c2ccccc2)c2ccccc2)o1 was read as SmPrx2 inh >57 and LT uptake inh 6.6%.
For c1cnc(N2CC[C@@]3(CCCNC3)C2)nc1 the results were SmPrx2 inh >57 and LT uptake inh -4.3%.
For O=C(CSc1nc2c(c(=O)n1-c1ccc(F)cc1)SCC2)Nc1ccc2c(c1)OCO2 the results were SmPrx2 inh >57 and LT uptake inh -2.2%.
`Cc1ccc(-c2csc(NC(=O)c3cccc(S(=O)(=O)N4CCN(C)CC4)c3)n2)cc1` gave SmPrx2 inh >57 and LT uptake inh -23.9%.
CCCS(=O)(=O)N1CCC(C(=O)c2cccc(C(F)(F)F)c2)CC1 was read as SmPrx2 inh >57 and LT uptake inh -11.5%.
For CCCCN(CC)S(=O)(=O)N1CCC(C(=O)NCc2ccc(F)cc2)CC1 the results were SmPrx2 inh >57 and LT uptake inh -20.2%.
Screening CCCC(=O)Nc1ccc(N2CCN(CC)CC2)c(Cl)c1 returned SmPrx2 inh >57 and LT uptake inh inconclusive.
Screening O=C(NCc1ccco1)c1cc(-c2ccc(Cl)cc2)on1 returned SmPrx2 inh >57 and LT uptake inh 2.7%.
`COc1ccc(-n2cnnc2SCC(=O)c2cc(C)n(Cc3cccs3)c2C)cc1` gave SmPrx2 inh >57 and LT uptake inh -15.1%.
Screening CCOC(=O)c1c(NC(=O)c2ccc(-n3cnnn3)cc2)sc2c1CCCC2 returned SmPrx2 inh >57 and LT uptake inh inconclusive.
O=C(NCc1ccccc1)NC(=O)c1ccncc1 was read as SmPrx2 inh >57.
Cc1ccc(NC(=O)CC2Nc3ccccc3NC2=O)cc1Cl (stereo not given) was read as LT uptake inh inconclusive.
Screening O=C(CN1C2CCC1CC(NC(=O)NC1CCCCC1)C2)NC1CC1 (stereo not given) returned SmPrx2 inh >57 and LT uptake inh -6.1%.
For CCOc1ccc(NC(=O)c2ccc(F)c(S(=O)(=O)N3CCN(c4ccccn4)CC3)c2)cc1 the results were SmPrx2 inh >57 and LT uptake inh inconclusive.
Screening COCCn1c(NCc2ccccc2)nc2c1c(=O)[nH]c(=O)n2C returned SmPrx2 inh >57 and LT uptake inh -3.5%.
For CCCCc1ccc(S(=O)(=O)NCCc2ccncc2)cc1 the results were SmPrx2 inh >57.
For Cc1noc(C)c1-c1ccc2ncnc(N(C)Cc3ccco3)c2c1 the results were SmPrx2 inh >11.4 and LT uptake inh 2.3%.
For O=C(Nc1ccc2c(c1)OCO2)C1COc2ccccc2O1 (stereo not given) the results were LT uptake inh -13.5%.
Screening CCCNC(=O)CC(NS(=O)(=O)c1ccc(Cl)cc1)c1ccco1 (stereo not given) returned SmPrx2 inh >57 and LT uptake inh 9.3%.
O=C(O)/C=C(/c1ccccc1)C(F)(F)F was read as LT uptake inh 5.8%.
For CCCS(=O)(=O)N1CCC(C(=O)NCc2cccnc2)CC1 the results were SmPrx2 inh >57 and LT uptake inh 9.7%.
`COc1ccc(-n2ncc3c(=O)n(CC(=O)N4CCCc5ccccc54)cnc32)cc1` gave SmPrx2 inh >57 and LT uptake inh -10.6%.
For CC1CCCCC1n1c(=S)[nH]c2ccccc2c1=O (stereo not given) the results were SmPrx2 inh >57 and LT uptake inh inconclusive.
O=c1cc(-c2cccc(O)c2O)oc2ccccc12 was read as SmPrx2 inh >25.6 and LT uptake inh -15.3%.
Screening CN(Cc1ccco1)c1ccnc(-c2ccoc2)n1 returned SmPrx2 inh inconclusive and LT uptake inh -11.4%.

Ordered by formula weight (ascending): some entries from above
O=C(O)/C=C(/c1ccccc1)C(F)(F)F was read as LT uptake inh 5.8%.
O=c1cc(-c2cccc(O)c2O)oc2ccccc12 was read as SmPrx2 inh >25.6 and LT uptake inh -15.3%.
For CC(C)(C)NC(=O)C1CCC(C)(C(=O)O)C1(C)C (stereo not given) the results were SmPrx2 inh >57 and LT uptake inh 4.4%.
`CNC(=O)CN(c1cc(C)ccc1C)S(C)(=O)=O` gave SmPrx2 inh >57 and LT uptake inh -1.0%.
Screening O=C(CSCCO)Nc1ccc(C2CCCCC2)cc1 returned SmPrx2 inh >57 and LT uptake inh 12.0%.
Screening Cc1cc2ncn(CC(O)COC3CCCCC3)c2cc1C (stereo not given) returned LT uptake inh -8.1%.
For CC1Oc2ccccc2N(CC(=O)NCC2CCCO2)C1=O (stereo not given) the results were SmPrx2 inh >57 and LT uptake inh -4.8%.
Screening CCCC(=O)Nc1ccc(N2CCN(CC)CC2)c(Cl)c1 returned SmPrx2 inh >57 and LT uptake inh inconclusive.
For O=C(CNC(=O)C12CC3CC(CC(C3)C1)C2)NC1=NCCS1 the results were SmPrx2 inh >57 and LT uptake inh 8.0%.
Screening COCCn1c(NCc2ccccc2)nc2c1c(=O)[nH]c(=O)n2C returned SmPrx2 inh >57 and LT uptake inh -3.5%.
Cn1c(C(=O)NC2CCCCC2)cc2c(=O)n(C)c3ccccc3c21 was read as SmPrx2 inh >57 and LT uptake inh 2.2%.
Cc1ccc(CN2C(=O)CCC2C(=O)NCc2ccc(F)cc2)cc1 (stereo not given) was read as SmPrx2 inh >57 and LT uptake inh 4.5%.
Screening O=C(CN1C2CCC1CC(NC(=O)NC1CCCCC1)C2)NC1CC1 (stereo not given) returned SmPrx2 inh >57 and LT uptake inh -6.1%.
For Cn1c(Cc2ccccc2)nnc1SCC(=O)Nc1ccc2c(c1)OCO2 the results were SmPrx2 inh >57 and LT uptake inh -3.1%.
For CN1CCN(c2ccccc2NC(=O)C(Cc2ccccc2)n2cccc2)CC1 (stereo not given) the results were SmPrx2 inh >57 and LT uptake inh -29.9%.
`COc1ccc(-n2ncc3c(=O)n(CC(=O)N4CCCc5ccccc54)cnc32)cc1` gave SmPrx2 inh >57 and LT uptake inh -10.6%.
`COc1ccc(-n2cnnc2SCC(=O)c2cc(C)n(Cc3cccs3)c2C)cc1` gave SmPrx2 inh >57 and LT uptake inh -15.1%.
COc1ccc(-n2c(Cc3cccn3C)nnc2SCC(=O)NCc2ccc(F)cc2)cc1 was read as SmPrx2 inh >57 and LT uptake inh -3.5%.
For CCOc1ccc(NC(=O)c2ccc(F)c(S(=O)(=O)N3CCN(c4ccccn4)CC3)c2)cc1 the results were SmPrx2 inh >57 and LT uptake inh inconclusive.
For CCCCCCN(C(=O)CCCCCN1C(=O)NC(c2ccc(-c3ccccc3)cc2)C(C(=O)OCc2ccccc2)=C1C)C(C(=O)NCCCC)c1ccc(O)c(C(=O)OC)c1 (stereo not given) the results were LT uptake inh 5.9%.

From PubChem BioAssay
